Source: PubChem (National Center for Advancing Translational Sciences (NCATS))
RE007 growth inh: less growth of the S. pombe RE007 Vpr strain; S. pombe RE007 Vpr strain, BacTiter-Glo ATP luminescence, 24 h; control for the full effect not named in the record; Potency, µM (doses to about 92.2 µM), inactives show at the top dose activity change, negative = less growth; 360,000 tested, 0.21% active; AID 651644; active = well fitted falling curve with a large enough effect; inconclusive = small, poorly fitted or top-dose-only effect; inactive = no such curve, though single readings can be large or run the other way;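 note: % is set by controls: 0 for no effect and ±100 for the full control effect; nearly all actives have a fitted effect of over 50% in size; the assay follows cell death caused by Vpr and the record does not say whether a fall means rescue or toxicity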
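Fission yeast RE007 carrying one integrated HIV-1 vpr copy, seeded at OD 0.01 in PMG+AL medium with 23 nL pinned compound. Grown 24 h at 30 degrees; viability read by BacTiter-Glo luminescence after 5 min.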
Cruzain noTriton: inhibitors of Trypanosoma cruzi cruzain without detergent; P25779; purified cruzain, Z-FR-AMC fluorescence, no detergent; Potency, µM, without a hit: max response, negative = inhibition, most hits filed as inhibitors; 200,000 tested, 2.3% active;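 note: plate controls were enzyme without inhibitor for no effect and buffer without enzyme for full effect; nearly all actives have a fitted effect of over 40% in size; top concentration of the series not given in the record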
Target sequence (P25779 123-467 limits assumed): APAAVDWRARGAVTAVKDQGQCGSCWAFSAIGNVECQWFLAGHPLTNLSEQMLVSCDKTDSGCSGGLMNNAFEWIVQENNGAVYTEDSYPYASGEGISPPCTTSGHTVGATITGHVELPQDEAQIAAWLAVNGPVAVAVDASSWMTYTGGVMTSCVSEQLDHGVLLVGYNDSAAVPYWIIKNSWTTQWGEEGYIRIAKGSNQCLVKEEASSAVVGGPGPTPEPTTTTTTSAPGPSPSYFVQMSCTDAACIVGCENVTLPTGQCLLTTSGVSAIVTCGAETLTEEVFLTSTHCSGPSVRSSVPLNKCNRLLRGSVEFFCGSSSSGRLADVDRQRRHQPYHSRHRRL
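Purified cruzain at 1.5 nM, pre-incubated 15 min with compound at room temperature in 100 mM sodium acetate pH 5.5, 5 mM DTT, 0.00005% Triton X-100. Reaction started with 2 uM Z-FR-AMC; AMC fluorescence increase over 60 s gives rate.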
SARS PLpro yeast: SARS-CoV PLP inhibition in yeast; S. cerevisiae expressing SARS-CoV PLpro, growth rescue; control for the full effect not named in the record; Potency, µM (titrated, usually from 32.9 µM), without a hit: top-dose activity, positive = growth rescue; 330,000 tested, 0.19% active; active means well fitted rising curve with a large enough effect; inconclusive means small, poorly fitted or top-dose-only effect; inactive means no such curve, though single readings can be large or run the other way; note: 0% is about no effect; nearly all actives have a fitted effect of over 55% in size; growth read by luminescence after 48 h
Cruzain inh Det: inhibitors of Trypanosoma cruzi cruzain with detergent. P25779. purified cruzain, Z-FR-AMC fluorescence, 0.01% Triton. Potency, µM, without a hit: max response, negative = inhibition, most hits filed as inhibitors. 200,000 tested, 0.43% active;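 note: plate controls were neutral wells for no effect and buffer without enzyme for full effect; nearly all actives have a fitted effect of over 40% in size; top concentration of the series not given in the record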
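Compounds were screened in titration against cruzain (1.5 nM) with 0.01% Triton X-100 to counter colloidal aggregation. Activity was the AMC fluorescence increase over 60 s after adding 2 uM Z-FR-AMC at pH 5.5.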
Marburg entry inh: blocks Marburg virus binding to or entry into cells; Marburg virus pseudotyped entry inhibition, cell reporter; control for the full effect not named in the record; about a third of the inactives were read at about 46 µM; Potency, µM (series often up to 37.8 µM), inactives show at the top dose activity change, negative = inhibition, usual class: inhibitors; 300,000 tested, 1.8% active; active = well fitted inhibition curve with a large enough effect; inconclusive = small, poorly fitted or top-dose-only effect, or effect the other way; inactive = flat fitted curve, though single readings scatter; tested in HEK293 cells; about a fifth of its hits are not listed in these tables; note: % is set by controls: 0 for no effect and ±100 for the full control effect; luciferase read-out
NS1 inh: blocks influenza NS1 protein function; Potency, µM (top dose mostly 46.1 µM), for inactives: at the highest dose activity, positive = more growth; S. cerevisiae slowed by influenza A NS1, growth recovery by OD600; 270,000 tested, 0.4% active; active means well fitted rising curve with a large enough effect; inconclusive means small, poorly fitted or top-dose-only effect; inactive means no such curve, though single readings can be large or run the other way; note: nearly all actives have a fitted effect of over 50% in size
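Compounds were scored for reversing the slow growth caused by influenza A NS1 in S. cerevisiae, measured by optical density at 600 nm. Assay medium contained 2% galactose at pH 6.0; NS1-free yeast of the same strain were the positive control.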
LASV entry inh: inhibitors of Lassa virus binding or cell entry; Lassa virus pseudotype entry inhibition, cell reporter; control for the full effect not named in the record; 300,000 tested, 1.2% active; Potency, µM (highest dose often 37.9 µM), inactives show at the highest dose activity change, negative = inhibition, hits mostly inhibitors; active means well fitted inhibition curve with a large enough effect; inconclusive means small, poorly fitted or top-dose-only effect, or effect the other way; inactive means flat fitted curve, though single readings scatter; tested in HEK293 cells; note: % is set by controls: 0 for no effect and ±100 for the full control effect; nearly all actives have a fitted effect of over 50% in size; luciferase read-out
2A StopGo: lowers the luciferase signal of an FMDV 2A StopGo reporter. Potency, µM (titrated, usually from 57.9 µM), without a hit: at the highest dose signal change, negative = less light. 410,000 tested, 1.2% active. AID 1159524. human cells with a luciferase reporter of 2A StopGo recoding; control for the full effect not named in the record; active = well fitted falling curve with a large enough effect; inconclusive = small, poorly fitted or top-dose-only effect; inactive = no such curve, though single readings can be large or run the other way; tested in HEK293T cells; note: % is set by controls: 0 for no effect and ±100 for the full control effect; nearly all actives have a fitted effect of over 45% in size; luciferase light after 4 h
Active calls of the source: *; ? = inconclusive; / = no result given; & = joins results of further samples; [ ] = remark or other dose. Unless noted, calls come from the whole dose curve; as a rule, active = well fitted curve in the direction sought with a large enough effect; inconclusive = small, poorly fitted or top-dose-only effect, or another doubt; inactive = no such curve, though single readings can be large; an effect the other way counts as inactive or inconclusive. Potency is the fitted concentration of half-maximal effect. Compounds as they come (roughly 4.5% active in at least one column).

SMILES | RE007 growth inh | Cruzain noTriton | SARS PLpro yeast | Cruzain inh Det | Marburg entry inh | NS1 inh | LASV entry inh | 2A StopGo
Cc1cccc(N2CCN(c3ccc(NC(=O)/C=C(/C(=O)O)c4ccccc4)cc3)CC2)c1 | -15% | ? | -3% | -6.5% | 9%[46.1 µM] | 2% | -5% | -23%
CCCc1cc(=O)[nH]c(SCC(=O)OCc2ccccc2)n1 | 10% | -1% | 1% | -1.3% | -18% | -21% | 10% | 3%
CCN(CC)S(=O)(=O)c1cccc(C(=O)Nc2cc3oc4ccccc4c3cc2OC)c1 | 9% | ? | -7% | -4.7% | ? | 0% | ? | -13%
COc1cccc(/C=N/NC(=O)c2ccc(=O)n(C)c2)c1O | 5% | -12% | ? | -3.2% | ? | 7% | ? | 28%
OC(COCC1COc2ccccc2O1)CN1CCN(c2ccc(F)cc2)CC1 (configuration not stated) | -3% | 12% | -11% | -3.2% | -25% | -7% | 0% | -18%
CCSc1nc2c(cnn2-c2ccc(C)c(C)c2)c(=O)[nH]1 | -6% | -6% | 12% | 0.7% | / | 0% | / | -19%
CCOC(=O)c1cn(-c2ccccc2)nc1-c1cccnc1 | 12% | -5% | 28% | -0.3% | ? | -21% | 3% | -10%
CCOc1ccccc1CN1CCNC(=O)C1CC(=O)NCc1nc(C)cs1 (configuration not stated) | 6% | / | ? | / | 16% | 3% | -20% | 9%
CCN(CC)c1nc(Oc2ccc(C(=O)NN)cc2)nc(Oc2ccc(C(=O)NN)cc2)n1 | 6% | / | -1% | / | 8%[46.1 µM] | ? | 25% | 51%[activator]
O=C(O)C1C2C=CC(C2)C1C(=O)NC1CCN(Cc2ccccc2)CC1 (configuration not stated) | 9% | -5% | -2% | 4.4% | 19% | -3% | 1% | -3%
Cc1c(Br)c(C(F)(F)F)nn1CC(=O)N1CCCC1 | -8% | -2% | / | 3.2% | -11% | 20% | -2% | /
O=C(Cn1cc2c(n1)CCCC2)NCCCN1CCCC1 | 5% | 3% | -1% | 6.7% | / | 7% | / | -12%
Cc1cc(C)cc(-n2nc(C)cc2N)c1 | 0% | 8% | -7% | 5.0% | -10% | 19% | -10% | 21%
CCn1c(C(=O)O)c(CC(=O)Nc2ccc(Br)cc2C)c2ccccc21 | -7% | / | -2% | / | / | 7% | / | -12%
COC(=O)c1cc(-c2c(C)oc3cc(OC)ccc3c2=O)c(C)o1 | 18% | 6% | -2% | 0.9% | -15% | -31% | ? | ?
CC1=CC(C)(C)Nc2ccc(OC(=O)CCN3C(=O)c4ccccc4C3=O)cc21 | -5% | 9% | ? | -14% | ? | -16% | ? | ?
Cc1ccnc(SCCn2c(N3CCC(C)CC3)nc3c2c(=O)[nH]c(=O)n3C)n1 | 4% | 1% | 5% | 4.4% | / | -7% | / | -24%
CSc1cccc(NC(=O)CN(C)S(=O)(=O)c2ccc(F)cc2)c1 | 14% | -3% | -2% | -2.8% | ? | -15% | 0% | -18%
CCSc1nnc(NC(=O)NC(C)(C(F)(F)F)C(F)(F)F)s1 | -1% | -10% | -15% | -7.6% | ? | -26% | ? | -15%
COc1ccccc1NS(=O)(=O)c1cc(NC(=O)c2sccc2C)ccc1N1CCCC1 | -10% | / | 1% | / | ? | 20% | -18% | 91%[activator]
COc1cc(C(c2c(O)c3ccccc3oc2=O)c2c(C)n(C)n(-c3ccccc3)c2=O)ccc1O (configuration not stated) | 39% | ? | 12% | -12%&-8.9% | ? | 14% | -3%[46.1 µM] | 0%&-4%
COc1ccc(CN2CCN(C(=O)c3cccs3)CC2)cc1Br | -9% | -2% | 4% | 2.8% | 5%[46.1 µM] | -9% | 4% | -19%
CCOc1ccc(CCNC(=O)C2(c3ccccc3)CC2)cc1OCC | 8% | / | 2% | / | / | 0% | / | -28%
CC(CN1CCCC(C(N)=O)C1)c1ccccc1 (configuration not stated) | -7% | 0% | -5% | 6.2% | 4% | 6% | 1% | 18%
Cc1ccc(-n2c(=O)c3c(c4cc(C)ccc4n3C)n(CC(=O)NCc3ccccc3Cl)c2=O)cc1 | / | -5% | / | 1.6% | -1%[46.1 µM] | / | -1%[46.1 µM] | -5%
(further entries)
SMILES | RE007 growth inh | Cruzain noTriton | SARS PLpro yeast | Cruzain inh Det | Marburg entry inh | NS1 inh | LASV entry inh | 2A StopGo
CNC(=S)Nc1cc(S(=O)(=O)Nc2cc(Cl)ccc2Cl)ccc1N1CCCC1 | 10% | / | 2% | / | / | 7% | / | 8%
CCOC(=O)COc1nc2ccc(Br)cc2c(-c2ccccc2)c1C(C)=O | -1% | / | 13% | / | / | -8% | / | -18%
O=C(CCN1C(=O)C2CC=CCC2C1=O)NC1CCCCC1 (configuration not stated) | 12% | / | 13% | / | -20%[46.1 µM] | 4% | 9%[46.1 µM] | -17%
COc1cc(NC(=O)CN2C(=O)NC(C)(c3ccccc3)C2=O)c(C)cc1[N+](=O)[O-] (configuration not stated) | 1% | -11% | 29% | -5.1% | -3% | 9% | 4% | 3%
COc1ccc(CCNC(=O)CCC(=O)N2CC(C)Oc3ccc(Cl)cc32)cc1OC (configuration not stated) | 0% | / | -10% | / | / | -9% | / | ?
COc1cc(S(=O)(=O)NCc2ccncc2)ccc1Br | 12% | / | -1% | / | ? | 7% | ? | -23%
c1ccc(/N=C2\N=C(Nc3ccccn3)c3ccccc32)nc1 | -2% | / | / | / | ? | -9% | ? | -7%
O=C(N/N=C/c1ccccc1)c1[nH]c2ccc(Br)cc2c1-c1ccccc1 | -1% | 0% | -19% | -8.8% | ? | -4% | ? | 10%
O=C(O)c1cccc(CSc2nnc(Cc3ccccc3)o2)c1 | -2% | -1% | -1% | 2.4% | 3% | -19% | 5% | 9%
COc1ccc(CCNC(=O)CN(C)S(=O)(=O)c2ccc3nc(C)sc3c2)cc1OC | -5% | / | ? | / | 1%[46.1 µM] | -2% | -8%[46.1 µM] | -25%
COc1ccc(NC(=O)c2cn(-c3ccccc3)nc2-c2cc3ccccc3o2)cc1 | 12% | ? | 1% | -3.3% | ? | 5% | 2% | 4%
C=C(C)CSc1nc2ccccc2[nH]1 | -12% | -2% | -20% | -2.4% | 14% | 1% | 5% | 31%[activator]
CCN1C(=O)c2ccccc2Sc2ccc(C(=O)NCCCN3CCOCC3)cc21 | 1% | / | -1% | / | ? | / | -5% | 4%
CCC1CCC2(CC1)NNC(=S)NN2 | -11% | ? | 8.9µM* | ? | -26% | 3% | -14% | -29%
COc1ccc(-n2c(C)c(C)c3c(NCCN(C)C)ncnc32)cc1 | 6% | / | 3% | / | / | 7% | / | -17%
COc1ccc(N(CC(=O)NCc2cccs2)S(=O)(=O)c2c(C)n[nH]c2C)cc1 | -9% | 2% | 3% | 4.7% | 0%&16% | ? | 6% | -3%
CC(=O)N1CCN=C1SCc1ccc(F)cc1 | -8% | -8% | 5% | 3.6% | -2% | ? | / | -22%
COc1ccc(NC(=O)Nc2cccc(F)c2)c(OC)c1 | -1% | / | -1% | / | 16%[46.1 µM] | / | 24%[46.1 µM] | 37%[activator]
Cc1ccccc1CCN1CCCC(CN(C)C(=O)c2ccc3ncccc3c2)C1 (configuration not stated) | -6% | / | -1% | / | -22%[46.1 µM] | -4% | -23%[46.1 µM] | 3%
COc1ccccc1NC1SC(=O)N(c2ccccc2)C1=O (configuration not stated) | 14% | -8% | 5% | 2.9% | 16% | -2% | 12% | 2%
CC12CCC3C(CCC4CC(O)CCC43C)C1CC(O)C2 (configuration not stated) | -16% | / | / | / | ? | / | -6%[46.1 µM] | ?
Cc1ccccc1Nc1sc(C(=O)c2ccc(F)cc2)c(N)c1C(=O)NCCc1ccccc1 | / | ? | / | -3.6% | / | / | 0%[46.1 µM] | -32%
O=C(CCNS(=O)(=O)c1ccccc1F)N1CCN(C/C=C/c2ccccc2)CC1 | 0% | / | 2% | / | ? | / | -24% | -21%
CCOC(=O)N1CCN(C(=O)COc2ccc(S(=O)(=O)NC3CCCCC3)cc2C)CC1 | -10% | ? | -6% | 6.1% | -1%&-30% | -14% | -4% | -5%
CCN(Cc1ccccc1)S(=O)(=O)c1ccc2c(c1)NC(=O)CC(=O)N2 | -10% | / | 3% | / | 7% | / | -20% | -12%
Going on with the list.
SMILES | RE007 growth inh | Cruzain noTriton | SARS PLpro yeast | Cruzain inh Det | Marburg entry inh | NS1 inh | LASV entry inh | 2A StopGo
COC(=O)c1c(NC(=O)c2ccc(S(=O)(=O)N(C)C3CCCCC3)cc2)sc2c1CCN(C)C2 | / | 2% | / | -0.4% | / | / | ? | -22%
CCc1ccc(OC(=O)Nc2ccccc2)cc1 | -22% | / | -7% | / | 20%[46.1 µM] | -1% | 0%[46.1 µM] | 0%
Cc1ccc(NC(=O)CN(C)C(=O)c2cc(S(=O)(=O)N(C)C)ccc2N2CCCC2)cc1 | -1% | / | -2% | / | -17% | / | ? | -15%
Cc1ccc(N2CCN(C(=O)Cn3ncc4c([nH]c5ccc(C)cc54)c3=O)CC2)c(C)c1 | / | 10% | / | 0.1% | / | / | 27%[46.1 µM] | -19%
Clc1cccc(-c2nc(NCc3cccnc3)c3ccccc3n2)c1 | -14% | 2% | -31% | -4.0% | -18% | -52% | 29% | -2%
O=C(NN=C(Cc1ccccc1)Cc1ccccc1)c1ccc(F)cc1 | -14% | -13% | -13% | -5.8% | -14% | -5% | -4% | 5%
C=CCOc1c(CNc2ccc(C(=O)O)cc2)cccc1OCC | 11% | 1% | -3% | -6.7% | 10% | -3% | 2% | 70%[activator]
CC(NS(=O)(=O)c1ccccc1)C(=O)Nc1ccc2c(c1)OCCO2 (configuration not stated) | -1% | / | 3% | / | -18% | 10% | 17% | -2%
C=C(C)CSc1nc2sc3c(c2c(=O)n1-c1ccccc1)CCC(C)C3 (configuration not stated) | / | 15% | / | 2.6% | / | / | 3%[46.1 µM] | -19%
CC(=O)Nc1ccc(S(=O)(=O)NC2(C(F)(F)F)C(=O)Nc3c2c(=O)[nH]c(=O)n3Cc2ccccc2)cc1 (configuration not stated) | 12% | -19% | 8% | -6.9% | 5% | 7% | -3% | -24%
